Screening data (PubChem)
ClpP mod: qHTS Assay for Activators of ClpP | 340,000 tested, 1.9% active | AID 651965, 2013 | purified B. subtilis ClpP, FRET peptide cleavage, 20 min | ATP-dependent Clp protease proteolytic subunit (Bacillus subtilis (strain 168)), P80244 | Potency, µM (series often up to 57.5 µM), for inactives: top-dose activity change, negative = active; active = well fitted falling curve with a large enough effect; inconclusive = small, poorly fitted or top-dose-only effect; inactive = no such curve, though single readings can be large or run the other way; also: potency is read from the fitted curve at half-maximal effect; the source files actives as falling curves though it sought activators and does not explain the sign; nearly all actives have a fitted effect of over 65% in size; many hits overshoot -100%
Target sequence (P80244 whole entry, looked up): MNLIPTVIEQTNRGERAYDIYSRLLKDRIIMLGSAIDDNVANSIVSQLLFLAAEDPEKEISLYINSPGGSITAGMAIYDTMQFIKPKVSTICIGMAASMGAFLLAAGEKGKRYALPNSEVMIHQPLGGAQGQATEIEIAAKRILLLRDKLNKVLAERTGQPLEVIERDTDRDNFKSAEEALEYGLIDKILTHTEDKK
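ClpP 10 microg/mL final, pH 8 Tris/KCl buffer with BSA, glycerol, Tween-20; compound pinned in; FRET-FV substrate; RT 20 min; Ex320/Em430; ΔFRET vs ADEP 5.8 microM, DMSO, no enzyme.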
TRPML1 inh: qHTS for Inhibitors of the Human Mucolipin Transient Receptor Potential 1 (TRPML1) | AID 624415, 2012 | TRPML1-inducible cells, Ca2+ dye fluorescence, FDSS; stronger effect = lower value; inhibition of EC80 agonist-evoked calcium signal | Mucolipin-1 (Homo sapiens), Q9GZU1 | activity change, negative = inhibition, % (concentration not given with the values) | 390,000 tested, 0.02% active; in the data active means activity change below about -50%; inconclusive means about -30% to -50%; inactive means above about -30%;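 also: stimulus is agonist 54-4 at its EC80 concentration; % is scaled to controls: 0 for no effect and ±100 for the full control effect; compound concentration not given in the record; the text of the record puts the active cut at -80%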
Target sequence (Q9GZU1 whole entry, looked up): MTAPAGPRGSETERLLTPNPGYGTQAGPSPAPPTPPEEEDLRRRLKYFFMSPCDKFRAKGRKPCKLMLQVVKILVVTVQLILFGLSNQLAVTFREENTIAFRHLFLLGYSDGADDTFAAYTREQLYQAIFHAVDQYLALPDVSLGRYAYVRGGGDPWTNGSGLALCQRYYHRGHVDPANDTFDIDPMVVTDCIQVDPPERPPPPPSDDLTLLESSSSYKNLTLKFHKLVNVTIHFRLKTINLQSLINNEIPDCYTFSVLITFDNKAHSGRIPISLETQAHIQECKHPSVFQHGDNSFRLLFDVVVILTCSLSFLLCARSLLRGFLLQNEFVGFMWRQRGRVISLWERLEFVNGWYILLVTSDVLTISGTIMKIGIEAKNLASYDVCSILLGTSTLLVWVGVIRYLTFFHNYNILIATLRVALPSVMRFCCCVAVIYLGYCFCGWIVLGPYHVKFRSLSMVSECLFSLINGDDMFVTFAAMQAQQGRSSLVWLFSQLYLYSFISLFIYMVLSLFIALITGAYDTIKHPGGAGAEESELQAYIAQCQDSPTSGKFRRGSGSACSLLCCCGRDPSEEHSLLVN
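Calcium fluorescence in TRPML1-DL cells induced overnight with Tet: a 110 s read after compound pin addition, then a 110 s antagonist read after challenge with 54-4 at 4 uM final (EC80).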
An asterisk follows results filed as active; u = inconclusive. A portion of the library; the hit share may differ from the screen's.

SMILES	ClpP mod	TRPML1 inh
COc1ccccc1CNC(=O)CC(c1ccc(OC)c(OC)c1)N1Cc2ccccc2C1=O (stereo not drawn)	-1.5%	-10
CCOC(=O)C1CCCN(S(=O)(=O)c2ccc(N3CCCCS3(=O)=O)cc2)C1 (stereo not drawn)	-4.0%	20
COc1cccc(CNC(=O)CCc2nnc3n(CC(C)C)c(=O)c4ccccc4n23)c1	u	4
Cc1ccc(-n2nc(C)c3c(C)cc(=O)n(CC(=O)Nc4cccc(C)c4C)c32)cc1	-6.7%	-6
Oc1c(C(c2ccc(Cl)cc2Cl)N2CCN(Cc3ccccc3)CC2)sc2nc(-c3ccco3)nn12 (stereo not drawn)	0.2%	5
CCc1ccccc1N1CC(c2nc3ccccc3n2CCOc2ccc(Cl)c(C)c2)CC1=O (stereo not drawn)	u	60
Cc1nn(C(=O)c2ccc(Br)cc2)c(C)c1Sc1ccccc1	u	7
COCCNC(=O)C1CCCN(Cc2ccc(Cl)cc2)CC1 (stereo not drawn)	1.1%	-5
COc1cc2c(=O)n(CCc3ccccc3)c(=O)n(CC(=O)Nc3ccccc3)c2cc1OC	-1.7%	-3
O=C(Cc1csc2ccccc12)NCc1ccccc1F	-3.4%	-17
CCc1nc2ccc(C(=O)NCCCN3CCCC3=O)cn2c1N(CC)CCOC	-2.2%	3
Cc1cccc(Cn2cc3c(=O)n(CC(=O)Nc4ccc(C)c(F)c4)nc-3c3cc(F)ccc32)c1	1.8%	-4
CCOc1ccc(/C=C/c2nc3ccccc3n2S(=O)(=O)c2cccc(Cl)c2)cc1	4.1%	18
COc1ccc2c(c1)c1c(c(=O)n(Cc3ccccc3)c(=O)n1CC(=O)Nc1ccccc1OC)n2C	20µM*	29
CC1=C(c2ccc(C)c(C)c2)S(=O)(=O)NC1=NCc1ccccc1Cl	-0.8%	51
CCCN1CCN(CCNC(=O)Nc2cc(OC)cc(OC)c2)CC1	1.1%	0
COCCNC(=O)Cn1ncc2c(C)n(Cc3ccc(C)cc3)c(C)c2c1=O	-24%	-7
CCOc1ccc(-c2cn3c(n2)sc2cc(C(=O)N4CCCC(C)C4)ccc23)cc1 (stereo not drawn)	-26%	6
COc1ccccc1CNC(=O)CCC1N=C2c3ccccc3N=C(SCC(=O)NCCc3ccc(OC)c(OC)c3)N2C1=O (stereo not drawn)	25%	-13
Cc1csc2nc(COC(=O)c3cccc(NC(=O)c4cccc(Cl)c4)c3)cc(=O)n12	-3.9%	30
CCC(=O)N1CCc2cc(Br)cc(S(=O)(=O)NCc3ccc(Cl)cc3)c21	-0.6%	30
CCCCc1nn2c(=O)cc(COC(=O)c3ccc(NC(=O)CCc4ccccc4)cc3)nc2s1	-13%	-23
CN(C)c1ccc(C(CNC(=O)c2ccccc2C(F)(F)F)N2CCOCC2)cc1 (stereo not drawn)	-2.2%	-5
Cc1ccc(N2C(=O)[C@@H]3CSC(c4ccc(C(F)(F)F)cc4)N3C2=O)cc1 (stereo partly drawn)	1.5%	10
CCC(Cn1nnc2ccccc2c1=O)NC(=O)Nc1ccc(C)cc1 (stereo not drawn)	-0.8%	-14
COc1cccc(CNC(=O)C(NS(=O)(=O)c2ccc3c(c2)oc(=O)n3C)C(C)C)c1 (stereo not drawn)	0.7%	-4
CCc1cccc(CC)c1NC(=O)c1c(C)oc2ccc(O)c(CN3CCOCC3)c12	u	-7
COc1ccc(OC)c(CNC(=O)c2ccc(N3Cc4ccccc4Oc4ncccc43)s2)c1	u	-1
CC(Sc1nccn1C)C(=O)Nc1ccccc1C#N (stereo not drawn)	0.2%	-13
CCc1cccc(OCC(=O)Nc2ccc(S(=O)(=O)Nc3ncccn3)cc2)c1	-2.9%	33
COc1cc2nc(NCc3ccc(C)cc3)n3nc(-c4ccccc4)nc3c2cc1OC	-12%	4
COc1ccc(CN(Cc2ccco2)c2cnc(S(C)(=O)=O)nc2C(=O)Nc2ccc(F)cc2)cc1	-3.8%	26
COc1ccc(CN2CCCN(CC(=O)Nc3ccc4c(c3)OCCO4)S2(=O)=O)cc1	1.0%	0
CCOC(=O)c1ccc(NC(=O)CC2C(=O)N(c3cccc(C)c3)C(=O)N2CCOC)cc1 (stereo not drawn)	0.6%	-3
COc1ccc(CNC(=O)CN(C)c2nn3c(=O)cc(C)nc3s2)cc1	-1.7%	-1
CCOC(=O)c1ccc(NC(=O)CC2Nc3ccccc3NC2=O)cc1 (stereo not drawn)	3.9%	9
CC(C)C[C@H]1CNC(=S)N1C[C@H]1CCCN1C[C@H](Cc1ccccc1)N1C[C@H](CC(C)C)N(CCc2ccccc2)C1=S	-2.3%	8
COc1cccc(NC(=O)C2CCCN(c3ncnc4onc(-c5ccc(F)cc5)c34)C2)c1 (stereo not drawn)	-1.3%	7
CCOc1ccccc1OCCCn1c(-c2ccc(Cl)cc2)nc2ccccc2c1=O	u	-4
COc1ccc(Cl)cc1S(=O)(=O)NCc1ccc2c(c1)CCN2C(=O)c1cccc(C)c1	-4.2%	42
Cc1c(C(=O)NCCN(C)C)sc2nc3n(c(=O)c12)CCC3	u	-5
CCc1ccccc1NC(=O)C1CCCN(S(=O)(=O)c2cccc3nsnc23)C1 (stereo not drawn)	0.8%	3
Cc1ccc(Nc2c(-c3c[nH]c4ccccc34)nc3ccccn23)cc1	4.1%	16
CCCCn1cc(S(=O)(=O)c2cccc(C)c2)c(=O)c2cc(F)c(N3CCOCC3)cc21	-9.1%	21
Cc1ccccc1NC(=O)Nc1nnc(N2CCCCCC2)s1	-0.4%	-17
COc1ccc(NC(=O)c2nc(S(C)(=O)=O)ncc2N(Cc2ccc(C)cc2)Cc2ccco2)cc1Cl	-1.4%	3
CCOc1cccc(CC(=O)N2CCc3c([nH]c4ccccc34)C2c2ccc(SC)cc2)c1OCC (stereo not drawn)	-0.9%	-3
COc1ccc(CNC(=O)c2ccc(-c3nc(CSc4ccccc4)c(C)o3)cc2)c(OC)c1	-24%	7
Cc1cccc(C(=O)Nc2ccc(OCc3cc(=O)n4ccc(C)cc4n3)cc2)c1	-3.1%	-7
CC1CCCCN1C(=O)c1ccc2c(c1)N(Cc1cccc(Cl)c1)C(=O)c1ccccc1S2=O (stereo not drawn)	1.6%	-1

More entries follow.
SMILES	ClpP mod	TRPML1 inh
Cc1cn2c(=O)cc(COc3ccccc3NC(=O)c3ccccc3C)nc2s1	-0.8%	2
CCOc1ccc(NC(=O)C2CCN(S(=O)(=O)c3ccc4c(c3)oc(=O)n4C)CC2)cc1	0.1%	-15
COc1ccc(NC(=O)C2=C(C)Nc3ncnn3C2c2ccc(O)cc2)cc1 (stereo not drawn)	-0.2%	-11
CCc1ccccc1NC(=O)c1ccc2c(SCC(=O)O)c3c(nc2c1)CCC3	-2.3%	-4
COc1ccc(C(=O)Nc2cc(-c3ccccc3)nn2-c2ccccc2)cc1	-15%	13
Cc1ccc(-c2cc3ncc4c(n3n2)-c2ccccc2OC4)cc1	-13%	7
O=C(Nc1nc2c(s1)CCCC2)c1ccccc1F	0.9%	7
CCOc1ccc(-c2cn3c(n2)sc2cc(C(=O)NCCCN(CC)CC)ccc23)cc1	u	-13
CCOc1ccccc1CNC(=O)c1oc2c(c1C)-c1[nH]ncc1CC2	-30%	31
CNS(=O)(=O)c1cn(CC(=O)N2CCN(c3ccc(Cl)cc3)CC2)cc1S(=O)(=O)NC	0.9%	12
Cc1ccc(NC(=O)CN2C(=O)COc3ccc(S(=O)(=O)N4CCCCCC4)cc32)cc1Cl	2.0%	-1
O=C(c1[nH]c(C(F)(F)F)nc1-c1ccccc1)N1CCN(C(=O)C2CCCO2)CC1 (stereo not drawn)	-0.5%	-13
Cc1ccc(C)c(Cn2c(-c3cccs3)nc3ccccc32)c1	4.8%	16
CN(C)C(=O)c1ccc2c(c1)N(CC(=O)NCc1ccc(F)cc1)C(=O)C1CCCCN21 (stereo not drawn)	-1.6%	4
CC(=O)c1ccc(NC(=O)Cn2c(=O)oc3cc(S(=O)(=O)N4CCCCC4)ccc32)cc1	0.7%	-10
Cc1ccc(-n2ncc(C(=O)NCc3ccco3)c2C2CCN(C(=O)OC(C)(C)C)CC2)c(C)c1	-2.7%	-17
CC(=O)c1ccc(NC(=O)CC2Nc3cc(C)c(C)cc3NC2=O)cc1 (stereo not drawn)	u	-3
CCN1CCC(N(Cc2ccc3c(c2)OCO3)C(=O)Nc2cccc(C)c2C)CC1	0.2%	15
COc1ccc(N2CCN(C(=O)Cc3c(C(=O)O)c(C)cn3C)CC2)cc1	-12%	1
COc1cccc(-c2nc(CS(=O)(=O)CC(=O)Nc3ccc(C)c(Cl)c3)c(C)o2)c1	-26%	-11

For convenience, some entries already given:
SMILES	ClpP mod	TRPML1 inh
COc1ccc(C(=O)Nc2cc(-c3ccccc3)nn2-c2ccccc2)cc1	-15%	13
Cc1ccc(-c2cc3ncc4c(n3n2)-c2ccccc2OC4)cc1	-13%	7
O=C(Nc1nc2c(s1)CCCC2)c1ccccc1F	0.9%	7
CCOc1ccc(-c2cn3c(n2)sc2cc(C(=O)NCCCN(CC)CC)ccc23)cc1	u	-13
CCOc1ccccc1CNC(=O)c1oc2c(c1C)-c1[nH]ncc1CC2	-30%	31
CNS(=O)(=O)c1cn(CC(=O)N2CCN(c3ccc(Cl)cc3)CC2)cc1S(=O)(=O)NC	0.9%	12
Cc1ccc(NC(=O)CN2C(=O)COc3ccc(S(=O)(=O)N4CCCCCC4)cc32)cc1Cl	2.0%	-1
O=C(c1[nH]c(C(F)(F)F)nc1-c1ccccc1)N1CCN(C(=O)C2CCCO2)CC1 (stereo not drawn)	-0.5%	-13
Cc1ccc(C)c(Cn2c(-c3cccs3)nc3ccccc32)c1	4.8%	16
CN(C)C(=O)c1ccc2c(c1)N(CC(=O)NCc1ccc(F)cc1)C(=O)C1CCCCN21 (stereo not drawn)	-1.6%	4
CC(=O)c1ccc(NC(=O)Cn2c(=O)oc3cc(S(=O)(=O)N4CCCCC4)ccc32)cc1	0.7%	-10
Cc1ccc(-n2ncc(C(=O)NCc3ccco3)c2C2CCN(C(=O)OC(C)(C)C)CC2)c(C)c1	-2.7%	-17
CC(=O)c1ccc(NC(=O)CC2Nc3cc(C)c(C)cc3NC2=O)cc1 (stereo not drawn)	u	-3
CCN1CCC(N(Cc2ccc3c(c2)OCO3)C(=O)Nc2cccc(C)c2C)CC1	0.2%	15
COc1ccc(N2CCN(C(=O)Cc3c(C(=O)O)c(C)cn3C)CC2)cc1	-12%	1
COc1cccc(-c2nc(CS(=O)(=O)CC(=O)Nc3ccc(C)c(Cl)c3)c(C)o2)c1	-26%	-11

More entries
SMILES	ClpP mod	TRPML1 inh
Cc1ccccc1NC(=O)Cn1cc(C(=O)c2ccco2)c2ccccc21	u	2
COc1ccc(C2C(C(=O)Nc3ccccc3)=C(C)Nc3nc(-c4ccc(Cl)cc4)nn32)cc1 (stereo not drawn)	-9.1%	22
CN1c2ccc(Cl)cc2-c2nc(SCC(=O)NCc3ccc(F)cc3)ncc2S1(=O)=O	-18%	-12
O=C(NCc1ccccc1)c1cc(C2CCCCN2C(=O)OCCF)on1 (stereo not drawn)	-2.5%	-4
COc1ccc(-c2ccc(=O)n(CC(=O)Nc3ccccc3C(F)(F)F)n2)cc1	-23%	-4
CCc1ccc(CNC(=O)c2ccc3c(c2)nc2n3CCOC2)cc1	-2.7%	-12
COc1cc(Cl)c(C)cc1Nc1ncnc2c1nc1n2CCCC1	-1.7%	20
Cc1nc2c(OCc3ccccc3)cccn2c1N(C)C(=O)C1CCCCC1	0.9%	-6
Cc1cc(C)c2c(CC(=O)Nc3nnc(CC(C)C)s3)coc2c1	-1.2%	14
CCOc1ccccc1NC(=O)C(CC)n1c(C(=O)OC)cc2occc21 (stereo not drawn)	1.1%	-12
CCOc1ccc(NC(=O)Cn2nnc(C(=O)OC)c2C(=O)OC)cc1	-2.2%	-7
O=C(CCC(=O)c1ccccc1)Nc1ccc(F)c(Cl)c1	-2.8%	6
CC1CCCCN1c1csc2ccc(F)cc2c1=O (stereo not drawn)	-17%	-1
CCOc1ccccc1NC(=O)C(Cc1ccccc1)NS(=O)(=O)c1ccc2c(c1)oc(=O)n2C (stereo not drawn)	-0.4%	-4
Cc1ccc2ncc(C(=O)N3CCN(c4ccccc4F)CC3)c(=O)n2c1	-12%	-9
COc1ccc(NC(=O)Cn2c(=O)n(CCCCCC(=O)NCc3ccc4c(c3)OCO4)c(=O)c3sccc32)cc1Cl	u	-13
Cc1c(-c2ccc(Cl)cc2)c(=O)oc2ccc(OC(=O)N3CCOCC3)cc12	u	50
CC(CNC(=O)Cc1ccc(NC(=O)N2CCSc3ncccc32)cc1)c1ccccc1 (stereo not drawn)	u	15
Cn1c(=O)oc2cc(S(=O)(=O)NC(Cc3ccccc3)C(=O)Nc3ccc(F)cc3)ccc21 (stereo not drawn)	-0.8%	-13
CCN(CC)c1c(C)nc2ccc(C(=O)NCc3ccc4c(c3)OCO4)cn12	0.4%	8
CCOc1ccc(NC(=O)Cn2c(=O)oc3cc(S(=O)(=O)N4CCCCCC4)ccc32)cc1	-1.1%	18
COc1cc(NC(=O)C2CCN(c3cnc4ccccc4n3)CC2)cc(OC)c1OC	-7.0%	-19
